KCNQ2 enhance = enhances the rat KCNQ2 potassium channel; O88943; CHO-K1 KCNQ2, FluxOR thallium flux fluorescence; active compounds read high; B-score at 10 µM; actives 0.54% (n = 310,000);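 active = fluorescence ratio B-score at least 3 SD of library B-scores, with initial fluorescence B-score within 3 SD, cut at about 5.3 in these data; same plate scores as AID 2156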;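 also: B-score of peak minus minimum over baseline fluorescence ratio after K+ and Tl+ stimulus; positive B-score means potentiation of KCNQ2 with more thallium influx and brighter signal; only the inactives scoring about 0 or higher are listed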
Target sequence (O88943 whole entry, looked up): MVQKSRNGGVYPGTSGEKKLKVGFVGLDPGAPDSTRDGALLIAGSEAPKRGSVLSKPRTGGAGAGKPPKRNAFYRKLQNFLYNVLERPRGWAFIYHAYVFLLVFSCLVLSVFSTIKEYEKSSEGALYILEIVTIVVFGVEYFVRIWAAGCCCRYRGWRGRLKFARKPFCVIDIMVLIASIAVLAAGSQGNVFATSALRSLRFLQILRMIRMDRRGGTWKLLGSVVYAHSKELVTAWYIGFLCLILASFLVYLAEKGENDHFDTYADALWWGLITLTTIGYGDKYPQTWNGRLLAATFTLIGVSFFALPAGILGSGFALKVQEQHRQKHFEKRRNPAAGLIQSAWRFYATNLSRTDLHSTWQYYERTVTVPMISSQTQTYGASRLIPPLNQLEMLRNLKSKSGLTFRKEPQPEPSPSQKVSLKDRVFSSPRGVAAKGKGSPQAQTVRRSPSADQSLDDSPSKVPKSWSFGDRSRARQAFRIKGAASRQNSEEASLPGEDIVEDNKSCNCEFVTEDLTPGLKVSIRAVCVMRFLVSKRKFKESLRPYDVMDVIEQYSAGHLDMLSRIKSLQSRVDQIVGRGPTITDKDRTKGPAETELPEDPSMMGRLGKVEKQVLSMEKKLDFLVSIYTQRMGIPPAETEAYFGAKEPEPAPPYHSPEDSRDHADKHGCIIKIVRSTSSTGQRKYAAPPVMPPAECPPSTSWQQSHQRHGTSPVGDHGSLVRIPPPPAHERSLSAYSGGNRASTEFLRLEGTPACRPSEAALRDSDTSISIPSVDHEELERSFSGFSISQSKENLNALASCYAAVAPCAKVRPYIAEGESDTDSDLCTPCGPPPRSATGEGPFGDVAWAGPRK
KCNQ2 enhance baseline = second read-out of KCNQ2 enhance, no call of its own (marks repeat the call); B-score; compound at 10 µM; measured here: initial fluorescence intensity artifact check;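 brightness before thallium and not channel activity; 0 = typical well and far values either way flag optical interference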
* marks the source's active call; other numbers are inactive results. Some of the compounds tested; count on the stated rates, not on these rows.

SMILES	KCNQ2 enhance	KCNQ2 enhance baseline
CCN(C(=O)COC(=O)c1cc(-c2ccccc2)nn1-c1ccccc1)C1CCS(=O)(=O)C1 (centres undefined)	0.52	1.5
Cc1cccc(C(=O)Nc2cc(OCc3cccc(F)c3)c(Cl)cc2Cl)c1	0.17	-2.3
COc1ccc(Cn2c(C)nc3c(c(=O)c4ccccc4n3C)c2=O)cc1	2.2	0.01
CC(=O)c1c(C)oc2c1cc(O)c1ccccc12	0.25	0.75
COc1ccc(CC(=O)N/N=C(\C)c2ccccn2)cc1	2.1	-0.51
O=C(NCCc1cccs1)C1CC1	1.4	0.35
COc1c(O)ccc(/C=C(\C#N)c2nc3ccccc3[nH]2)c1[N+](=O)[O-]	2.9	-3.5
COc1ccc(O)c(C(=O)c2cnn(-c3ccccc3)c2)c1	0.57	0.12
CNC(=S)N/N=C/c1ccc(-c2cc([N+](=O)[O-])ccc2Cl)o1	0.29	2.3
Nc1nc(CSCCO)nc(Nc2ccccc2)n1	0.22	-0.89

An excerpt of these results, with bars between the fields.
SMILES | KCNQ2 enhance | KCNQ2 enhance baseline
COc1c(O)ccc(/C=C(\C#N)c2nc3ccccc3[nH]2)c1[N+](=O)[O-] | 2.9 | -3.5
COc1ccc(O)c(C(=O)c2cnn(-c3ccccc3)c2)c1 | 0.57 | 0.12

Record cards, as listed above:
COc1ccc(O)c(C(=O)c2cnn(-c3ccccc3)c2)c1 is listed as KCNQ2 enhance: 0.57; KCNQ2 enhance baseline: 0.12
CC(=O)c1c(C)oc2c1cc(O)c1ccccc12 is listed as KCNQ2 enhance: 0.25; KCNQ2 enhance baseline: 0.75
COc1ccc(Cn2c(C)nc3c(c(=O)c4ccccc4n3C)c2=O)cc1 is listed as KCNQ2 enhance: 2.2; KCNQ2 enhance baseline: 0.01

Following part.
SMILES	KCNQ2 enhance	KCNQ2 enhance baseline
COc1ccc(NC(=O)CCC(=O)Nc2nnc(C3CCCCC3)s2)cc1	0.86	-0.99
COc1ccc(C)c2sc(NC(=O)C3=COCCO3)nc12	0.48	0.03
O=C(OCC(=O)c1ccc[nH]1)c1ccc(Cl)nc1	1.1	0.14
CSc1ccccc1OCc1cc(C(=O)N2CCc3[nH]cnc3C2c2ccccn2)no1 (centres undefined)	2.3	1.1
Cc1ccc(-c2nc3cccnc3s2)cc1NS(=O)(=O)c1ccc2c(c1)OCCO2	1.6	-0.94
Nc1nnnn1/N=C/c1ccc(F)cc1	0.05	0.63
COC(=O)c1c(NC(=O)CC2NCCNC2=O)sc2c1CCCC2 (centres undefined)	1.5	0.76
Cc1onc(-c2c(F)cccc2Cl)c1C(=O)OCC(=O)NCc1ccco1	0.84	0.78
CC(=O)c1ccc(NC(=O)CN2CCCC2)cc1	0.57	-1.2
CN(C)c1ccc(-c2nc3n(n2)C(c2cccnc2)C2=C(CC(C)(C)CC2=O)N3)cc1 (centres undefined)	0.89	-0.46
CSc1nc(-c2ccccc2)nn1C(=O)c1ccccc1	0.19	-0.51
O=C(CC1Oc2ccccc2NC1=O)NC1CCCC1 (centres undefined)	0.17	-1.6
C=CCNC(=S)N/N=C/c1ccc(OCc2ccccc2)cc1	0.68	-0.06
Cc1nonc1C(=O)N/N=C/c1ccccc1	0.42	0.34
C/C=C\C=C\C(=O)N1CC2(CC(c3cccc(NC(=O)/C(C)=C\C)c3)=NO2)C[C@H]1C(N)=O (some centres undefined)	1.9	-0.01
CCOc1ccc(Nc2nc3cc(S(=O)(=O)N(CC)CC)ccc3o2)cc1	1.5	-1.6
O=C(CSc1nccc(=O)[nH]1)c1cc2ccccc2o1	1.3	-0.52
COC(=O)COc1ccc(-c2nccc(-c3ccccn3)n2)cc1	0.18	-1.2
C/C(=N/NC(=O)CNC(=O)C1COc2ccccc2O1)c1ccc2c(c1)OCCO2 (centres undefined)	0.18	0.29
Cc1ccc(C(C)C)c(OCC(=O)Nc2cccc(S(=O)(=O)NC3=NCCCCC3)c2)c1	0.92	0.47
CCN(CC)S(=O)(=O)c1ccc(OC(C)C)c(N)c1	1.1	-0.72
COc1cccc(C(=O)Nc2ccc(NC(=O)c3ccco3)nc2)c1	0.52	-1.3
CCN(CCCNC(=O)C1CCN(S(=O)(=O)CC)CC1)c1ccccc1	2.5	-1.3
Cc1ccc2c(c1)C(c1ccccc1)N(C(=O)CC(C)C)CC(=O)N2 (centres undefined)	0.03	3.1
Cc1cc(C)cc(NC(=O)CN(c2ccc(F)cc2)S(C)(=O)=O)c1	0.49	-0.41
Cc1c(NC(=O)Cn2cc([N+](=O)[O-])cn2)c(=O)n(-c2ccccc2)n1C	0.95	-2.3
CC1CCN(CCCNC(=O)c2cc3c(=O)n(C)c4ccccc4c3n2C)CC1	0.54	-0.15
O=C(c1ccccc1)N1CCC2(CC1)NCCc1[nH]cnc12	0.05	2.4
O=C(N/N=C/c1ccc(OC(=O)c2cccs2)cc1)c1ccc(F)cc1	0.05	1.3
O=C(CSc1nnc(Cc2ccccc2)o1)N1CCc2ccccc21	0.41	0.06
O=C(Nc1nc2ccccc2s1)C1CC(=O)N(c2ccc(F)cc2)C1 (centres undefined)	0.55	-0.02
COc1ccc(OC)c(S(=O)(=O)NCC2CCCO2)c1 (centres undefined)	0.15	-1.6
CCCC(C)C(=O)Nc1cc([N+](=O)[O-])ccc1Cl (centres undefined)	0.03	0.79
CCNc1c(NS(=O)(=O)c2ccc(C3CCCCC3)cc2)c(=O)oc2ccccc12	1.2	-3.4
CCP(=O)(CC)c1cccc(N)c1	0.81	0.02
CCc1ccc(OCC(=O)Nc2ncn[nH]2)cc1	0.99	2.1
Cc1ccc(CNC(=O)c2ccc(CS(=O)Cc3ccccc3Cl)o2)cc1 (centres undefined)	0.64	4.6
Cc1ccc(-c2nnn(CCC(=O)NC(C)(C)C)n2)cc1	0.68	-0.89
Nn1c(SCC(=O)Nc2ccc(Oc3ccccc3)cc2)nnc1C1CC1	0.01	-0.59
N#CCn1c2ccccc2c2nc3ccccc3nc21	0.42	-0.15
NC(=O)c1cccc2c(=O)oc3ccccc3c12	0.16	-0.92
Cc1ccc(CNC(=O)Cn2ccc3ccccc3c2=O)o1	0.1	-1.3
O=S(=O)(CCSc1ccc(C(F)(F)F)cn1)c1ccc(Cl)cc1	0.46	-2.3
O=C(NC1CCCC1)C1CCCN(S(=O)(=O)c2ccc(-n3cnnn3)cc2)C1 (centres undefined)	0.52	-0.54
CC(CCn1cccn1)NC(=O)c1cc(COc2ccc(F)cc2F)on1 (centres undefined)	0.76	0.08
O=S(=O)(Nc1ccc(Br)cn1)c1ccc(Cl)s1	0.68	-1.4
CCCc1cc(=O)[nH]c(Nc2ccc(O)cc2)n1	0.27	-2.4
CCC1(CC)NC(=O)N(CC(=O)Nc2ccc(S(=O)(=O)N3CCOCC3)cc2)C1=O	0.02	-2.7
CC(C)CN(C(=O)c1ccc(C(F)(F)F)cc1)c1c(N)n(CC(C)C)c(=O)[nH]c1=O	0.08	-0.71
CC(C)NC(=O)CC1C(=O)NCCN1CC(c1ccccc1)c1ccccc1 (centres undefined)	0.69	-0.19

More results
SMILES	KCNQ2 enhance	KCNQ2 enhance baseline
CC(C)(C)C1CCc2c(sc(NC(=O)C3CC=CCC3C(=O)O)c2C#N)C1 (centres undefined)	5	0.32
CCOC(=O)c1ccc(N/N=C/c2cc(Br)cc([N+](=O)[O-])c2O)cc1	0.37	0
CCC(C)N(C(=O)Cn1c(=O)cnc2ccccc21)C1CCS(=O)(=O)C1 (centres undefined)	0.01	-2.8
COc1ccc(/C=N/NC(=O)c2ccn[nH]2)cc1COc1ccc(Cl)cc1	1.4	-1.1
CNC(=O)NC(=O)C(C)OC(=O)CCCSc1nc2ccccc2s1 (centres undefined)	0.01	-0.91
CCOC(=O)C1CCN(C(=O)CCc2nnc3ccc(NCCCN4CCCC4=O)nn23)CC1	1.1	0.83
COc1cc(/C=N/NC(=O)C[n+]2ccccc2)cc(OC)c1OC(C)=O	0.34	0.25
COc1ccc2nc(Nc3nc(CSc4nc5ccccc5[nH]4)cc(=O)[nH]3)nc(C)c2c1	1.5	-0.01
CN(C)C(=O)c1c2c(nc3ccccc13)CCCC2	1.7	-0.22
COc1ccc(-c2[nH]ncc2CN(Cc2nccn2C)C(C)C)c(F)c1	0.81	-0.56
Nc1c([N+](=O)[O-])cc(-c2cnc[nH]2)cc1[N+](=O)[O-]	0.29	-0.96
COc1ccc(/C=C/C(=O)Nc2ccccc2)cc1S(=O)(=O)N1CCOCC1	1.2	0
COc1cc(CN(C)CC2CCCN(CCc3ccc(F)cc3)C2)c(Cl)cc1O (centres undefined)	0.49	0.51
COc1ccc(N(C(=O)c2ccc(Br)o2)C2C=CS(=O)(=O)C2)c(OC)c1 (centres undefined)	0.25	-0.65
Cc1cc(C)n2cc(CSc3ccc(Cl)cc3)nc2n1	1.1	0.04
CCn1c(=O)c2c(nc(SCC(=O)N3CCC(C)CC3)n2C)n(C)c1=O	0.73	0.46
C=CCN1C(=O)CS/C1=N\S(=O)(=O)c1ccc(Cl)cc1	0.11	-0.8
c1ccc(CNCCN2CCNCC2)nc1	0.51	-1.3
O=C(NC1CCN(C(=S)NCc2ccco2)CC1)C1CCCCC1	1.6	0.12
CCN(C(=O)c1ccccc1Cl)c1ccccc1	1.5	-0.28
CC1(C)CC(=O)C2=C(C1)Nc1cc3c(cc1C2c1ccc(F)cc1)OCO3 (centres undefined)	1.3	0.4
O=C(COC(=O)/C=C/c1ccco1)NCc1ccccc1	0.12	0.09
Cc1ccc(CNC(=O)CCC2CCCN(C(=O)CCC(F)(F)F)C2)o1 (centres undefined)	0.91	-1.6
Cc1ccc(C)c(S(=O)(=O)N2CCCOC2CNC(=O)C(=O)NCc2cccnc2)c1 (centres undefined)	0.26	0.51
O=C(CN(C(=O)Cn1nnc(-c2ccc(F)cc2)n1)c1ccc(F)cc1)NC1CCCC1	0.03	0.67
COc1ccc(-n2c(O)c(/C=N/n3cnnc3)c3ccccc3c2=O)cc1	0.86	2.7
Cc1ccc(S(=O)(=O)NC(=O)NCc2ccccc2)cc1	0.42	0.52
O=C(NCN1CCN(c2ccccc2F)CC1)c1cccnc1	0.63	0.34
CCN1CCN(Cc2ccc(NC(=O)c3ccc(C)c(NC(=O)c4nccn4C)c3)cc2C(F)(F)F)CC1	0.53	1.1
O=C(NC1=NCCS1)c1cc(-c2ccccc2)nn1-c1ccccc1	0.72	-0.62
Cc1ccc(CN2C(=O)CCC2C(=O)NC2CC2)cc1 (centres undefined)	0.06	0.97
Cc1cccc(CN2CCN(Cc3ccco3)CC2)c1	0.5	-0.04
CCOC(=O)c1c(C)[nH]c(C(=O)COC(=O)C2CC(=O)N(Cc3ccccc3)C2)c1C (centres undefined)	1.7	-1.9
CCOc1ccc(Cn2cc(F)c(=O)[nH]c2=O)cc1	0.26	0.79
Cc1ccc(C(=O)OCc2cc3ccccc3[nH]c2=O)cc1	0.29	-2.7
COc1ccccc1-c1nnc(SCc2nc3ccccc3s2)n1C	0.22	-2.5
N#Cc1c(N)nc(SC2CCCCC2=O)c(C#N)c1-c1ccco1 (centres undefined)	0.8	-1.7
Oc1ccc(Br)cc1-c1n[nH]c(=S)n1Cc1ccccc1	11*	-0.92*
COC(=O)c1cc(S(=O)(=O)NC2CCN(Cc3ccccc3)CC2)cn1C	0.36	2.5
Cc1cccc(C(=O)N/N=C/c2ccncc2)c1	0.23	-0.85
O=C(CSc1ncccn1)NC(=O)c1ccccc1	0.25	3
CCOC(=O)N1CCN(C(=O)/C(=C\c2cccs2)NC(=O)c2cccs2)CC1	1	-1.1
Cc1cccc(Cn2c(N3CCN(C)CC3)nc3c2c(=O)n(C)c(=O)n3C)c1	0.02	-0.55
CC1CCN(c2nc3nonc3nc2N2CCC(C)CC2)CC1	0.07	1.8
Cc1ccc(-c2cn3cccnc3n2)cc1NC(=O)c1cccs1	1.9	-1.2
CCOC(=O)N1CCC(N(CCN(C)C)C(=S)Nc2ccccc2Cl)CC1	0.17	1.1
Cc1cc(=O)c(C(=O)OC(C)C(=O)NC(N)=O)nn1-c1ccc(Cl)cc1 (centres undefined)	4	9.2
CCc1ccc(CN2CCC(C(=O)Nc3ccc(-n4nc(C)cc4C)cc3)CC2)o1	0.22	0.37
CC(C)c1ccc(C2=C(O)c3ccccc3C(=O)C2=O)cc1	1.1	0.62
COc1cc(NC(=O)CN2C(=O)C(c3ccccc3)=NC23CCCCCC3)cc(OC)c1	0.17	0.03

Single entries from above.
CCOC(=O)N1CCC(N(CCN(C)C)C(=S)Nc2ccccc2Cl)CC1 @ KCNQ2 enhance baseline: 1.1
CCN(C(=O)c1ccccc1Cl)c1ccccc1 @ KCNQ2 enhance baseline: -0.28
COc1ccccc1-c1nnc(SCc2nc3ccccc3s2)n1C @ KCNQ2 enhance baseline: -2.5
COc1ccc2nc(Nc3nc(CSc4nc5ccccc5[nH]4)cc(=O)[nH]3)nc(C)c2c1 @ KCNQ2 enhance baseline: -0.01

Continuation.
SMILES	KCNQ2 enhance	KCNQ2 enhance baseline
COc1ccc(S(=O)(=O)N2CCN(c3ncccn3)CC2)cc1[N+](=O)[O-]	0.06	1.5
O=S(=O)(c1ccc(Cl)cc1)N1CCN(c2nc(-c3cccs3)nc3ccccc23)CC1	0.19	-1.5
CC(=O)c1ccc(N2CCN(S(=O)(=O)c3ccccc3)CC2)c(F)c1	0.36	1.4
COc1cccc(CNC(=O)Cn2c(=O)n(CCC(=O)N3CCCCC3)c(=O)c3sccc32)c1	0.11	-0.11
CCOc1ccc(C2/C(=C(\O)c3ccc4c(c3)OCCO4)C(=O)C(=O)N2Cc2cccnc2)cc1OCC (centres undefined)	1.3	-0.2
O=C(CCn1c(=O)oc2ccccc21)NCCCN1CCOCC1	0.53	0.41
Cc1ccnc(NC(=O)CCC(=O)N(Cc2ccco2)C(C(=O)NC(C)C)c2ccc(F)cc2)c1 (centres undefined)	0.12	-0.2

Assay outcomes: PubChem BioAssay, Johns Hopkins Ion Channel Center
